GIV Gai3 FP = GIV-Galpha-i interaction inhibition. AID 1224905. percent of control (FP), % (concentration not given with the values). 0.42% of 210,000 active. P08753. Galpha-i3/FITC-GIV peptide fluorescence polarization, 90 min; active compounds read low; scaled: aluminum fluoride 0%, vehicle 100%;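 active = replicate mean at 85% of control or lower, very high polarization wells dropped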;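 note: wells of about 15 µL received 100 nL stock; the first replicate is given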
Target sequence (P08753 whole entry, looked up): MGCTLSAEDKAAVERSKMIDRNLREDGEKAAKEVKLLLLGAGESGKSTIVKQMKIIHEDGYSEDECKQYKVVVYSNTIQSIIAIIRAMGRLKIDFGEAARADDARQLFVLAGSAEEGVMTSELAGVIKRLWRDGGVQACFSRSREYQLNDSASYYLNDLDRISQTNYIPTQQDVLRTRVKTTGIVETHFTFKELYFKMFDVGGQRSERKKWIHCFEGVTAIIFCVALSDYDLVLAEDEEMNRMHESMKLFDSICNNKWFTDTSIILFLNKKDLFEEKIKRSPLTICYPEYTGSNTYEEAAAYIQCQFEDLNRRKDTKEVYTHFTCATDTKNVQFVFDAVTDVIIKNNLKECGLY
Sa growth inh = blocks Staphylococcus aureus growth | S. aureus RN4220 growth, OD600, 20 h, 42 °C; active compounds read low | 0.53% of 170,000 active | relative growth, % (test concentration not listed);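 active = growth at 42 °C up to 50% and 20 or more points under that at 30 °C, or under 10% at both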;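 note: 300 nL library stock went into each well; scaled to the means of positive and negative controls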
HCMV UL50-53 inh = inhibitors of HCMV UL50-UL53 nuclear egress complex interaction. HTRF UL50-UL53 interaction, normalized percent inhibition. inhibition, % (no concentration beside the values). 0.15% of 190,000 active. AID 1918969;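 active = both replicates at 50% or more, plus weaker picks with an unusually low signal ratio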;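 note: stock transfer was 100 nL into about 20 µL; 0% = negative control wells and 100% = wells with untagged competitor protein; inactives centre near -12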
Sa growth inh second temp = second read-out of Sa growth inh, no call of its own (marks repeat the call); relative growth, %; measured here: growth at 30 °C;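 optical density after 20 h as mean of two plates; 100% = untreated growth and lower means inhibition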
An asterisk follows results filed as active; / = no result given; & = joins results of further samples. No enrichment for hits. About 0.8% of those tested had a hit in this group.

Compound	Sa growth inh	Sa growth inh second temp	GIV Gai3 FP	HCMV UL50-53 inh
Cc1ccc(NC(=O)CCc2nnc3ccc(NCc4ccc(Cl)cc4)nn23)cc1	/	/	100	-38
N#C[C@@H]1[C@@H](C(=O)c2ccc(F)cc2)N2C=Cc3ccccc3[C@@H]2[C@@]1(C#N)C(=O)c1ccccc1	134	63	/	-38
FC(F)(F)c1nc(N2CCCCC2)nc2c1CCCCC2	98	90	100	-11
COc1ccc(/C=C/C(=O)N(CC(C)C)CC(C)C)cc1	90	82	99	-10
O=C1N(c2ccccc2)CCN1c1ccccc1	109	100	101	-5
O=C(CCC1CCCCC1)Nc1ccc(-c2cn3cccnc3n2)cc1	97	93	104	/
CCSC1=NC2(CCN(C(=O)NC3CCCCC3)CC2)N=C1c1ccc(C)c(C)c1	83	90	109	/
Cc1ccc(NC(=O)C(C)Sc2nc(N)cc(=O)[nH]2)cc1 (stereo not drawn)	110	84	103	-27
CC1=NC=CC2NC(=O)C(C#N)=CC12 (stereo not drawn)	91	86	103	-123
CCOc1ccc(C(=O)Nc2ccc3oc(-c4ccccc4F)nc3c2)cc1[N+](=O)[O-]	/	/	100	-20
O=C(O)c1c(Cl)nc2sccn12	82	97	/	-2
O=C(Nc1ccccc1)Nc1ccc(OC(F)F)cc1	92	82	107	-14
Cc1ccc(-c2nc3ccccc3o2)cc1NC(=O)Cc1ccc(Cl)cc1	96	90	109	-60
Cc1ccccc1N=CC=Nc1ccccc1C	103	80	104	/
C=CCNC(=S)NC1(C)CCS(=O)(=O)C1 (stereo not drawn)	116	93	104	/
CSc1nc(N)c(C#N)s1	121	90	/	-30
CC(=O)N1N=C(c2cc(C3CC3)nc3ccccc23)OC1c1ccc2c(c1)OCO2 (stereo not drawn)	99	92	103&102	-11&-20
Cc1cc(C(=O)NN2C3CSC2CS3)no1	100	80	101	/
COC(=O)C1=C(C)NC2=C(C(=O)CCC2)C1c1ccc2c(c1)CCC(C)(C)O2 (stereo not drawn)	103	80	100	-28
O=C=NC12CC3CC(CC(C3)C1)C2	92	98	/	8
CCc1nn(CC(=O)N(C)Cc2ccccc2)c(=O)c2cc3sccc3n12	79	60	101	-17
O=C(N/C(=C\c1ccc(-c2ccc(Cl)cc2Cl)o1)C(=O)N1CCCC1)c1ccccc1	84	101	/	-5
COc1ccc(CC(=O)O)c(OC)c1	78	87	/	-30
Cc1ccccc1OCC(=O)OCC(=O)NC1CCCCC1	82	92	/	-28
Cc1c(CN2CCN(Cc3ccccc3)CC2)sc2ccccc12	112	93	107	-9
O=S(=O)(c1cc(C(F)(F)F)ccc1Cl)N1CCN(Cn2c(CO)nc3ccccc32)CC1	84	91	/	-20
Cc1ccc2c(c1)C=C(C(=O)Nc1ccc(F)cc1)C=CO2	/	/	98	-28
O=[N+]([O-])c1ccc2c(c1)C1C=CCC1C(c1ccc(S(=O)(=O)N3CCOCC3)cc1)N2 (stereo not drawn)	/	/	102	-28
CCCN(CC1CC1)C(=O)CSc1n[nH]c(=O)n1CC	94	94	/	-14
Cc1nn2c(c1-c1ccc(Cl)cc1)N=C(c1ccco1)CC2c1ccccc1 (stereo not drawn)	98	85	96	-1

Looked up by structure from the entries so far, 2 records:
Compound	Sa growth inh	Sa growth inh second temp	GIV Gai3 FP	HCMV UL50-53 inh
CCCN(CC1CC1)C(=O)CSc1n[nH]c(=O)n1CC	94	94	/	-14
Cc1ccccc1OCC(=O)OCC(=O)NC1CCCCC1	82	92	/	-28

(further entries)
Compound	Sa growth inh	Sa growth inh second temp	GIV Gai3 FP	HCMV UL50-53 inh
O=C1NC(c2cccc(F)c2)=N/C1=C\C=C\c1ccccc1	97	66	126	/
CC(=O)c1ccc(NC(=O)c2cccc(NC(=O)N3CCSc4ncccc43)c2)cc1	98	87	107	/
COc1ccc(C2CC(=O)C3=C(C2)Nc2onc(C)c2C3c2ccc(OC)c(OC)c2)cc1 (stereo not drawn)	/	/	105	-19
CC(CC(=O)O)C(=O)c1ccc(Cl)cc1 (stereo not drawn)	105	84	/	-4
O=c1c2cccnc2nc(SCc2cc(=O)n3cc(Cl)ccc3n2)n1Cc1ccc(F)cc1	/	/	106	2
N#Cc1ccc(OC(=O)c2ccc(-c3cccc(C(F)(F)F)c3)o2)cc1	91	98	/	-19
NC(=O)CN(c1ccccc1)C1SC(=O)NC1=O (stereo not drawn)	118	84	94	-25
O=C(CN1CCNCC1)N1CCCCC1	82	90	/	2
CC(C)(C)C1CCc2c(sc3nc(-c4cc5cc(Cl)ccc5oc4=O)[nH]c(=O)c23)C1 (stereo not drawn)	114	88	106	-12
CCN(CC)C(=O)NCc1noc2ccccc12	124	87	109	/
NC(Sc1nc(=O)n(C2CCCCC2)c2c1CCC2)c1cccc2ccccc12 (stereo not drawn)	/	/	105	-7
O=C(COC(=O)c1ccc2c(c1)OCO2)NC1C2CC3CC(C2)CC1C3 (stereo not drawn)	99	91	/	-27
Cc1ccc(CNC(=O)c2cc(C3CC3)nc3c2c(C)nn3-c2cccc(Cl)c2C)cc1	107	84	104	/
CCOC(=O)C1=C(C)N=c2s/c(=C\c3cc(Br)ccc3OC(C)=O)c(=O)n2C1c1ccc(OC(C)=O)cc1 (stereo not drawn)	/	/	102	-18
Cc1oc2ccc(O)c(CN3CCCC3)c2c1C(=O)Nc1cccc(Cl)c1C	118	92	104	-5
COc1ccc(-n2nc(C(=O)NCc3cc(OC)ccc3OC)c3c4ccccc4n(C)c3c2=O)cc1	85	82	100	/
CCc1nn(CCCC(=O)N2CCN(c3ccc(OC)cc3)CC2)c(=O)c2cc3occc3n12	96	85	101	-15
CC(C)(C)c1ccc(Oc2ncccc2NC(=O)c2cccs2)cc1	94	70	102	-5
CSc1ccc(CCNC(=O)c2csc3c2CCCC3)cc1	107	87	100	/
Cc1cc([N+](=O)[O-])nn1CC(=O)Nc1cc(Oc2cccc(Cl)c2)cc([N+](=O)[O-])c1	/	/	103	-23
Cn1c(=O)c(=O)n(C)c2cc(NC(=O)CN3CCOCC3)c(Cl)cc21	/	/	101	-7
O=S1(=O)NC(=NCc2ccco2)c2ccccc21	105	82	/	-71
COc1ccc(OC)c(Nc2sc(C(=O)c3ccccc3)c(N)c2S(=O)(=O)c2ccccc2)c1	110	92	109	-24
Cc1ccc(-n2cnc3cc(C(=O)NCc4ccc(F)cc4)ccc32)c(C)c1	89	74	102	/
Cc1ccc(NC(=O)COc2ccc3oc4c(c3c2)CCCC4)cc1C	104	92	97	-4
COCCCNc1nc2ccc(C(=O)c3ccccc3)cc2n2cnnc12	100	83	100	-5
Cc1cc2c(cc1NS(=O)(=O)c1ccc(F)cc1)n(C)c(=O)c(=O)n2C	100	83	98	/
CCC(C)N(C(=O)NC1CCCCC1)C(C)CC (stereo not drawn)	123	100	101	-34
CN(C)c1ccc(C(=S)N2CCN(C(c3ccccc3)c3ccccc3)CC2)cc1	79	88	101	/
Cc1ccc(Cl)cc1N1CCN(C(=O)Cc2c(C(=O)O)c(C)cn2C)CC1	92	89	98	/
Cc1ccc(NC(=O)OCCS(=O)(=O)c2ccc(C(F)(F)F)cn2)cc1	89	84	99	-5
Cc1ccc(NC(=O)COC(=O)c2nc(Cl)ccc2Cl)cc1	76	93	/	-1
NC(=S)N/N=C/c1ccco1	87	73	279	-65
O=C(CSC1CCCCC1)NCc1ccccc1	104	107	103	2
CN(C)C(=O)c1ccc2c3c(cccc13)CC2	98	87	101	-13
CC1=NOC(=O)/C1=C/c1ccc(O)cc1	64	59	97	11
Cc1cccc(NC(=O)CS(=O)(=O)c2cn(C)c3ccccc23)c1	88	82	103	-42
COCCn1c(-c2cc3ccccc3o2)csc1=Nc1ccc(OC(F)F)cc1	80	66	/	-10
O=C(Nc1cccc(Br)c1)Nc1c[nH]c(=O)[nH]c1=O	/	/	99	-13
O=C(Cn1cc(C(=O)c2ccco2)c2ccccc21)Nc1ccccc1Cl	85	88	103	-18
O=C(OCC(=O)N1CCc2ccccc2C1)c1ccc(F)cc1Cl	80	89	/	-13
Cc1ccc(NC(=O)Cn2cc(C(=O)C3CCCCC3)c3ccccc32)c(C)c1	79	82	104	-24
COC(=O)C1Cc2ccccc2CN1Cn1nc(-c2ccco2)n(-c2ccccc2)c1=S (stereo not drawn)	96	96	/	-12
CCOc1ccc2[nH]c(=O)c(CN(Cc3cccnc3)S(=O)(=O)c3ccccc3)cc2c1	103	91	106	-22
COc1ccc(OC)c(/C=N/N2C(=O)C3C(C2=O)C2C=CC3C23CC3)c1 (stereo not drawn)	98	90	/	-20
NC(Cc1ccccc1)C(=O)O (stereo not drawn)	96	91	106	-19
CCc1nc2nc3c(c(N4CCN(c5ccc(C)cc5C)CC4)n2n1)CCC3	/	/	106	5
O=C(OCC(=O)N(C1CCCCC1)C1CCCCC1)c1ccc(Br)o1	85	95	/	-18
O=C1CCN(C(=O)c2ccc(-c3cccc(C(F)(F)F)c3)o2)CC1	98	90	/	-43
COc1ccc(Nc2cc(C)c3cc(NC(=O)COc4cccc(C)c4)ccc3n2)cc1	101	100	103	/

Carrying on.
Compound	Sa growth inh	Sa growth inh second temp	GIV Gai3 FP	HCMV UL50-53 inh
Cc1ccc(NCC(=O)N=Nc2c(O)[nH]c3ccccc23)cc1	88	56	103	-47
CCc1nn2c(=O)cc(COC(=O)c3ccco3)nc2s1	89	95	107	/
O=C(Nc1c(C(=O)N2CCOCC2)oc2ccccc12)c1cccc(F)c1	90	103	101	12
Cc1ccc(-c2nc3cccc(C)n3c2Nc2ccc3c(c2)OCO3)o1	2.2*	2.0*	110	2
COc1ccc(CN(CC(=O)NC2CCCC2)C(=O)Cn2nnc(-c3ccc(OC)cc3)n2)cc1	74	88	107	-3
COc1ccc(CNC(=O)c2ccc3c(c2)NC(=O)C(CS(=O)(=O)Cc2ccccc2Cl)N3)cc1 (stereo not drawn)	78	89	289	/
Cc1cccc2sc(N(Cc3cccnc3)C(=O)c3cccs3)nc12	130	79	99	/
COC(=O)C1=C(C)N=c2s/c(=C\c3cc(Br)ccc3OC(C)=O)c(=O)n2C1c1ccc(OC)cc1 (stereo not drawn)	/	/	103	-15
Cc1nn(-c2ccccc2)c(Cl)c1/C=C/C(=O)O	77	96	/	4
O=C(Cc1ccccc1)Nn1cnc2ccccc21	110	78	/	-34
Cc1c(C(=O)Nc2cccc(Cl)c2)oc2ccc(S(=O)(=O)N3CCOCC3)cc12	109	90	102	/
Cc1cc(C)nc(-n2nc(C)cc2NC(=O)CNC2CCCCC2)n1	101	99	/	12
CCOc1ccc(N2C(=O)CN(Cc3cccnc3)[C@H]3CS(=O)(=O)C[C@H]32)cc1	/	/	99	-23
Nc1nc(=Nc2ccccc2)n2c(n1)sc1ccccc12	100	87	/	-4
COc1ccccc1-c1nn(CCC(=O)NC2CCCC2)c2nc(C)cc(C)c12	105	77	98	/
CCOC(=O)N1CCC(N(CCOC)C(=S)Nc2ccc(C)cc2C)CC1	102	45	102	/
Cc1cc(NC(=O)c2cc(-c3ccc(F)cc3)no2)nn1CC(=O)N1CCC(C)CC1	111	83	102	/
O=S(=O)(NCCn1c(-c2ccncc2)nc2cccnc21)c1cccc2nsnc12	/	/	107	-103
O=C(Cn1nnc2ccccc21)C1CC1	95	84	/	-5
CCSc1nc2c(cnn2CCO)c(=O)[nH]1	/	/	103	4

Three entries from above, arranged by the number in Sa growth inh, ascending:
| molecule | Sa growth inh | Sa growth inh second temp | GIV Gai3 FP |
| --- | --- | --- | --- |
| O=C(Cn1nnc2ccccc21)C1CC1 | 95 | 84 | / |
| COc1ccccc1-c1nn(CCC(=O)NC2CCCC2)c2nc(C)cc(C)c12 | 105 | 77 | 98 |
| Cc1cc(NC(=O)c2cc(-c3ccc(F)cc3)no2)nn1CC(=O)N1CCC(C)CC1 | 111 | 83 | 102 |

Next part
Compound	Sa growth inh	Sa growth inh second temp	GIV Gai3 FP	HCMV UL50-53 inh
Cc1ccc(CNC(=O)CSc2nc3ccsc3c(=O)n2C2CC2)cc1	79	90	109	/
CCn1ccnc1P(=O)(c1ccccc1)N1CCOCC1 (stereo not drawn)	96	86	/	-20
COC(=O)C1CN(C(=O)/C=C/c2ccccc2)c2ccccc2O1 (stereo not drawn)	105	77	105	/
CCOc1ccc(-c2cc(C(=O)NCCc3ccccc3)c3c(-c4ccc(C)cc4)[nH]nc3n2)cc1	108	98	105	/
CNC(=S)NNc1ncccc1-n1cccc1	94	90	106	-10
CCOC(=O)C1CCN(c2c(C(=O)c3ccc(OC)cc3)cnc3ccccc23)CC1	84	96	106	11
CCOc1ccccc1NC(=O)CCc1c(C)nn(-c2ccc(N3CCOCC3)nn2)c1C	87	89	103	/
O=C(C1CC1)N1N=C(c2ccc(Cl)cc2)CC1(O)C(F)(F)F (stereo not drawn)	75	86	103	/
CCOC(=O)c1ccccc1NC(=O)N1CCN(Cc2cc(=O)n3nc(-c4ccccc4)sc3n2)CC1	97	89	109	/
CCCCCn1c(=O)c2ccccc2n2c(Cn3ncc(Cl)c(Cl)c3=O)nnc12	79	88	/	-27
